# E coli growth – inhibitors of Escherichia coli growth. OD600, 23 h; active compounds read low. OD600 absorbance (test concentration not listed). 0.21% of 330,000 active. AID 1053175;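 active means OD600 absorbance below the run mean of sample wells minus 3.6 SD, in any replicate, cut at about 0.56 in these data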;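 further: stock transfer was 300 nL into about 60 µL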
# FGF22 binding – shifts melting point of recombinant human FGF22 | Q9HCT0 | recombinant FGF22 thermal shift, SYPRO orange fluorescence; percent of sucrose octasulfate shift, DMSO zero | calls only at 9.99 µM | 1.5% of 340,000 active | AID 651658;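 active means melting point raised past a set limit in the mean and every replicate; inconclusive means no clear call; three in four hits are not shown here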
# Target sequence (Q9HCT0 whole entry, looked up): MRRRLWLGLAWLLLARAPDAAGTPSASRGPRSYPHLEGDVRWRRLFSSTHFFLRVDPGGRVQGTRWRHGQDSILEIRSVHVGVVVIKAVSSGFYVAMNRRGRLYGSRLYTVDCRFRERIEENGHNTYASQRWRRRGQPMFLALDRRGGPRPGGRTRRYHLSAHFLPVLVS
# rRNA inh HTS – selective bacterial rRNA inhibition in E. coli; E. coli WT GFP vs humanized-ribosome RFP mutants, fluorescence, 24 h; active compounds read low; DMSO median 0, no signal -100; GFP signal change (wild-type ribosome), % (test concentration not listed); 1.6% of 350,000 active;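 active means significant combined selectivity score with lowered wild-type GFP, culture density cut under 30%, mutant RFP and density less affected; inactive means any of these conditions unmet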; further: one replicate is shown; some compounds called inactive have numbers as strong as hits
# ALR inh – inhibitors of human sulfhydryl oxidase ALR | purified ALR, DTT oxidation, H2O2 HRP-luminol luminescence | inhibition, % (test concentration not listed) | 3.8% of 290,000 active | AID 485317;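 active means mean and each replicate at 75% or more; inconclusive means only one of the two met; inactive means neither met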;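 further: stock transfer was 7.5 nL into about 7.5 µL; 0% = neutral wells and 100% = wells with inactivated enzyme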
# Target sequence (P55789 whole entry, looked up): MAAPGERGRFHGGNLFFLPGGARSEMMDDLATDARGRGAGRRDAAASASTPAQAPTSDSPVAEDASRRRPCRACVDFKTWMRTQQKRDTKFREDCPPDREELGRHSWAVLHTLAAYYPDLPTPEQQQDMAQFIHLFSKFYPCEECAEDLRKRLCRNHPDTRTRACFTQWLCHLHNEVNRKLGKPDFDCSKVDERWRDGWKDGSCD
# Vif A3G – inhibitors of Vif binding to APOBEC3G peptide, primary screen, biochemical, TR-FRET, GST-Vif 1-94, biotin-A3G peptide, dose response retest (AID 1117319); TR-FRET GST-Vif / biotin-A3G peptide binding; higher % means a stronger effect; test concentration not given here; strong numbers were not always called active; one-dose inhibition, %; IC50 in µM for titrated hits; 0.57% of 260,000 active;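 active means above the screen mean plus three standard deviations and confirmed in dose response; inconclusive means results disagree or hit not tested in dose response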;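 further: Vif residues 1-94 fused to GST binding biotinylated APOBEC3G peptide 110-148; 0% = full assay without inhibitor and 100% = GST in place of GST-Vif; retest series ran down from 100 µM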
# HNF4A DNA FP – change in binding of human HNF4 alpha to DNA; P41235; HNF4a-FITC DNA binding, fluorescence polarization, 1 h; activity change, % at 10 µM; 0.3% of 360,000 active; in the data active means activity change above about 30%, passing the limit was not always enough;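 further: controls were the assay level and a saturating level of protein; the project sought stronger binding though the title names inhibitors; some compounds called inactive have numbers as strong as hits; positive values seem to mean higher polarization but the record does not say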
# MLL AF4-AF9 inh – inhibitors of human MLL-AF4/AF9 interaction; AlphaScreen, biotin-AF4 peptide binding to FLAG-AF9; AID 651704; inhibition, % at 10 µM; 0.47% of 350,000 active;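 active means every replicate reaching a set inhibition limit, whatever the replicate mean, cut at about 25% in these data; inconclusive means mean inhibition reaches that limit but some replicates miss it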;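 further: 0% = plate neutral control median and 100% = total signal loss; the record names both 10 and 1 µM as test concentration; the first replicate is given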
# Target sequence (P42568 whole entry, looked up): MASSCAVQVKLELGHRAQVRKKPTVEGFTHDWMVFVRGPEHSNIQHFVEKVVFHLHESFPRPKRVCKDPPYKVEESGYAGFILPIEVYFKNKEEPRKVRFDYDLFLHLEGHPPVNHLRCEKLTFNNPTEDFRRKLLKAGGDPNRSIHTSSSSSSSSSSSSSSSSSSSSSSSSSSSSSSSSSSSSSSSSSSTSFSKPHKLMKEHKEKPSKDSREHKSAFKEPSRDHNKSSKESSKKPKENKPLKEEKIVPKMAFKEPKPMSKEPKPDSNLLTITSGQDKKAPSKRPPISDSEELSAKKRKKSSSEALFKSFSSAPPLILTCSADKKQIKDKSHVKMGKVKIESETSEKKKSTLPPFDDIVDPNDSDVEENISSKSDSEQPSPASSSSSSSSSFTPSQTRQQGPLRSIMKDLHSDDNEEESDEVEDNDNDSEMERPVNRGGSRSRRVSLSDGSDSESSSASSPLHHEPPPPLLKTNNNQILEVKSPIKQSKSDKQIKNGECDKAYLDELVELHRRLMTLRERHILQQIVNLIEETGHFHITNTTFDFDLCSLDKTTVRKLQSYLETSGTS
# rRNA inh HTS OD600 – recorded beside rRNA inh HTS, whose call it bears; OD600 change, %; measured here: OD600 growth;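 optical density of the mix in the first replicate; 0 = DMSO median and -100 = no signal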
# rRNA inh HTS RFP – recorded beside rRNA inh HTS, whose call it bears; RFP signal change, %; measured here: RFP humanized mutant strains;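 first replicate; 0 = DMSO median and -100 = no signal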
# The depositor's hits bear a star; i = inactive; u = inconclusive; x = not tested or not shown; & = joins results of further samples.
SMILES,E coli growth,FGF22 binding,rRNA inh HTS,rRNA inh HTS OD600,rRNA inh HTS RFP,ALR inh,Vif A3G,HNF4A DNA FP,MLL AF4-AF9 inh
Cc1ccc2cc(C)c(SCC(=O)Nc3ccc(S(=O)(=O)N4CCCC4)cc3)nc2c1,0.73,i,7,-4,6.2,-2,-44%,5.3,-3.1
COc1ccc(CNC(=O)c2sc(=O)n(Cc3ccccc3OC)c2C)cc1,x,i,-8,-13,-5.3,x,x,2.0,-2.1
O=C(Nc1ccc(S(=O)(=O)Nc2nccs2)cc1)c1cccc(F)c1,0.67,i,-4,1,3.1,-5,x,3.1,0.2
CCOC(=O)CCc1c(C)c(C#N)c2nc3ccccc3n2c1-n1ccnc1C,0.67,x,x,x,x,-20,-1%,-1.1,x
CN1C(=O)c2cc(NC(=O)c3ccc(F)c(F)c3)ccc2OC[C@@H]2O[C@@H](CC(=O)N[C@@H]3CCN(Cc4ccccc4)C3)CC[C@@H]21,x,i,2,-6,6.3,x,x,x,14
Cc1cc(C)n(CC(O)COc2ccc(F)cc2)n1 (centres undefined),0.65,i,-9,-15,-2.6,-5,0%,3.0,-9.9
CCOC(=O)c1cc2ccccc2n1CC(=O)c1ccccc1,0.66,i,9,19,-0.5,-2,x,-2.4,-2.0
COc1ccc(-c2ccnc3nc(/N=C/N(C)C)nn23)cc1,x,i,14,13,0.6,2,0%,x,-0.6
COc1ccc(NC(=O)Cn2c(-c3ccccc3)cc(C(C)=O)c2C)c(OC)c1,0.69,i,-2,4,-1.8,3,x,2.6,-0.1
CC(C)CN(C(=O)CCNC(=O)c1ccc(Cl)cc1)C1CCS(=O)(=O)C1 (centres undefined),0.65,i,4,4,-8.4,-5,-7%,-0.5,1.0
COc1ccc(-c2cc(=O)oc3cc(OCC(=O)NCCN4CCOCC4)ccc23)cc1,0.69,i,6,9,-2.1,-17,x,1.0,0.7
C[C@@H]1CN([C@@H](C)CO)C(=O)Cc2cc(NC(=O)C3CCCCC3)ccc2O[C@H]1CN(C)Cc1ccc(Oc2ccccc2)cc1,x,i,-3,-10,11,x,x,x,1.7
O=C(NC1=NCCS1)c1cc(-c2ccc(F)cc2)nc2ccccc12,0.7,i,11,15,-1.0,0,-4%,4.0,0.5
COc1cccc(-c2ccc3c(c2)O[C@H](CN(C)C(=O)C2CCOCC2)[C@H](C)CN([C@@H](C)CO)S3(=O)=O)c1,x,i,-5,-6,-2.0,x,x,x,-1.5
COc1ccc(-c2csc(N(CC3CCCO3)C(=O)c3ccccc3)n2)cc1 (centres undefined),0.71,i,9,8,1.8,-6,-135%,-0.3,-2.0
CCCCCCn1c(=O)n2n(c1=O)C[C@]1(OC(=O)NC3CC3)CN(S(=O)(=O)c3ccc(C)cc3)C[C@]1(O)C2,x,i,-18,-29,-0.6,x,0%,-2.9,-1.7
O=C1[C@@H]2CSCN2C(=O)CN1Cc1c(F)cccc1Cl,0.64,i,7,8,-1.4,-4,x,6.5,-1.0
Cc1ccc(/C=N/NC(=O)c2nnn(-c3nonc3N)c2CSc2ccc(Cl)cc2)o1,x,i,-5,-11,0.6,-1,x,-2.8,1.1
O=C(CSc1nc2ccccc2[nH]1)NCc1ccco1,0.68,i,-1,1,-1.2,32,0%,3.1,3.4
N#C/C(=C\c1ccc(C(=O)O)cc1)c1nc2sc3c(c2c(=O)[nH]1)CCCC3,0.72,i,15,-4,7.7,x,x,11,-7.3

# Reprinted from the part before: 2 entries, followed by the next part.
SMILES,E coli growth,FGF22 binding,rRNA inh HTS,rRNA inh HTS OD600,rRNA inh HTS RFP,ALR inh,Vif A3G,HNF4A DNA FP,MLL AF4-AF9 inh
O=C(CSc1nc2ccccc2[nH]1)NCc1ccco1,0.68,i,-1,1,-1.2,32,0%,3.1,3.4
N#C/C(=C\c1ccc(C(=O)O)cc1)c1nc2sc3c(c2c(=O)[nH]1)CCCC3,0.72,i,15,-4,7.7,x,x,11,-7.3
O=C(C[C@H]1CC[C@@H](NC(=O)C2CCOCC2)[C@H](CO)O1)NCc1ccccc1Cl,x,i,-1,1,-2.0,x,x,x,-2.0
CCOC(=O)c1c(C)[nH]c(C(=O)OC(C)C(=O)NCc2ccccc2)c1C (centres undefined),0.67,i,3,8,0.1,-6,4%,-0.4,-1.9
COc1ccccc1CNc1nc2ccccc2n1CCN1CCCCC1,0.71,x,x,x,x,98*,5%,-1.7,x
Cc1ccc(C(NC(=O)c2ccccc2)C(Cl)Cl)cc1 (centres undefined),0.64,i,-9,-15,-22,-1,u,1.7,-4.5
Cc1cc(S(=O)(=O)NCc2ccccc2)ccc1OCC(=O)N1CCOCC1,0.65,i,13,9,3.0,1,u,-0.6,-2.1
CCCNC(=O)C(NS(=O)(=O)c1cccc2nsnc12)c1ccccc1 (centres undefined),0.7,x,x,x,x,-23,u,2.9,x
CC(=O)Nc1ccc(NC(=O)C(C)OC(=O)/C=C/c2ccc3c(c2)OCO3)cc1 (centres undefined),0.65,i,-2,11,-0.8,1,0%,0.6,-0.6
CN(C)CCN1CCN(C2CN(Cc3cn(Cc4cccc(Cl)c4)nn3)S(=O)(=O)C2)CC1 (centres undefined),x,i,3,1,2.0,x,x,1.6,-0.2
Cc1cccc(-c2ccc([C@@H]3[C@@H](CO)N4CCCCN(S(=O)(=O)c5ccccc5C)C[C@H]34)cc2)c1,x,i,-30,-44,0.8,x,x,x,5.0
CCCCC(=O)Nc1ccccc1C(C)C,0.66,x,x,x,x,-5,u,x,x
Cc1ccc(C)c(NC(=O)C(NCC(C)(C)N2CCOCC2)c2ccccc2)c1 (centres undefined),0.71,i,x,x,x,x,7%,2.7,1.9
CCc1ccc(N2C(=O)CN(Cc3sccc3C)C2=S)cc1,0.68,i,2,1,4.8,-1,-1%,-0.8,-12
C[C@H](CO)N1C[C@H](C)[C@H](CN(C)Cc2ccc(C(=O)Nc3ccccc3N)cc2)Oc2ccc(NC(=O)Nc3ccc4c(c3)OCO4)cc2CC1=O,x,i,-19,-13,-0.1,x,x,x,1.1
Cc1ccc(C(C)C)c(OCC(=O)NNC(=O)C(C(C)C)N2C(=O)c3ccccc3C2=O)c1 (centres undefined),0.65,x,x,x,x,-67,-2%,1.0,x
CCS(=O)(=O)N1CC(=O)N2[C@H](CO)[C@@H](c3ccc(C#Cc4cccc(F)c4)cc3)[C@@H]2C1,x,i,-53,-75,-3.6,x,x,x,-5.5
CN(C)CCN(Cc1ccc(Cl)cc1)c1ccccn1,x,i,x,x,x,1,22%,5.7,-0.5
COc1ccc2c3c([nH]c2c1)[C@H](CO)N(C(=O)Cc1ccccc1)CC31CN(C(=O)Nc2ccccc2F)C1,x,i,-7,-5,2.3,x,x,x,-0.6
O=[N+]([O-])c1ccc(N(CCO)Cc2ccccc2)c([N+](=O)[O-])c1,0.68,i,-9,-5,3.5,-6,-3%,4.4,9.5
Cc1ccccc1NC(=O)COC(=O)c1ccc(S(=O)(=O)N2CCCC2)cc1,0.66,i,7,12,-3.5,-32,x,1.5,1.3
CCOC(=O)c1cc(-c2ccccc2)sc1NC(=O)C(C)N1C(=O)NC(C)(c2ccc(Cl)cc2)C1=O (centres undefined),0.8,x,x,x,x,6,-4%,51*,x

# Limited to E coli growth, HNF4A DNA FP and rRNA inh HTS RFP, for some of the entries so far:
smiles	E coli growth	HNF4A DNA FP	rRNA inh HTS RFP
Cc1ccc(/C=N/NC(=O)c2nnn(-c3nonc3N)c2CSc2ccc(Cl)cc2)o1	x	-2.8	0.6
Cc1ccc(C(C)C)c(OCC(=O)NNC(=O)C(C(C)C)N2C(=O)c3ccccc3C2=O)c1 (centres undefined)	0.65	1.0	x

# Next results.
SMILES,E coli growth,FGF22 binding,rRNA inh HTS,rRNA inh HTS OD600,rRNA inh HTS RFP,ALR inh,Vif A3G,HNF4A DNA FP,MLL AF4-AF9 inh
CC(NC(=O)C12CC3CC(C1)CC(n1cncn1)(C3)C2)C12CC3CC(CC(C3)C1)C2 (centres undefined),0.79,x,x,x,x,x,-7%,2.9,x
C=CCN(C(=O)Cn1nnc2ccccc21)C(C(=O)NCCOC)c1ccc(OC)cc1OC (centres undefined),0.69,x,x,x,x,-4,-2%,-0.2,x
Cc1cc(NC(=O)c2ccc(NC(=O)C3CC3)cc2)no1,0.71,i,14,14,1.8,-13,-6%,-2.9,2.9
CCOc1ccccc1Nc1nnc(SCc2nnc(-c3cc(OC)c(OC)c(OC)c3)o2)s1,0.66,x,x,x,x,9,-5%,3.9,x
CC1CCN(C(=O)c2ccccc2NC(=O)c2cccc(S(=O)(=O)N(C)C)c2)CC1,0.7,i,2,-15,1.1,-1,-11%,1.1,-2.1
COc1cc(C(=O)NCC2(N3CCCCC3)CCCCC2)ccc1OCC(=O)N1CCOCC1,0.71,i,7,0,-1.7,x,1%,-2.0,-15
CC(C)CC(NC=C1C(=O)OC(C)(C)OC1=O)C(=O)O (centres undefined),0.69,x,x,x,x,x,0%,0.8,x
C=CCn1c(NC(=O)c2ccco2)nc2ccccc21,0.7,i,-28,-30,-14,-1,x,2.2,-1.8
O=c1[nH]cnc2c1c(-c1ccccc1)cn2-c1ccccc1,0.7,i,-31*,-19*,2.0*,1,x,1.3,-2.6
Cc1ccc(-n2ccc(=O)c(-c3ccnc(SCc4cccc(Cl)c4)n3)n2)cc1,0.72,x,x,x,x,-3,-33%,-2.8,x
COc1ccc(OC)c(C(=O)N2CCC(C(=O)c3ccc(F)cc3)CC2)c1,0.63,x,x,x,x,-7,-1%,-1.1,x
Nc1nonc1C(=O)N/N=C/c1ccncc1,x,i,13,12,4.8,-1,15%,3.3,-1.6
CCn1c(=S)[nH]c2ccccc21,0.73,x,x,x,x,31,9%,-0.5,x
C[C@H]1CN([C@@H](C)CO)C(=O)c2cccc(NS(=O)(=O)c3cn(C)cn3)c2O[C@H]1CN(C)CC1CC1,x,i,2,13,-1.3,x,x,x,-1.4
CCc1ccccc1NC(=O)CN(C)C(=O)COC(=O)c1ccccc1Cl,0.69,i,3,-1,-2.5,x,12%,-3.0,-0.8
COc1ccc(C(C(=O)NCc2ccccc2)N(Cc2ccco2)C(=O)c2snc(C(N)=O)c2N)cc1 (centres undefined),0.71,i,-2,-5,3.0,4,x,1.2,-0.8
CC(C)NC(=O)N1Cc2cc(C(=O)NCC(F)(F)F)nc(-c3cccc(-c4cc5ccccc5o4)c3)c2[C@@H]1CCO,x,i,5&17,13&11,2.9&4.7,x,x,-0.3,6.2&0.7
Clc1ccccc1CO/N=C1\CCCc2nonc21,x,x,x,x,x,0,u,-1.3,x
COC(=O)[C@@H](NC(=O)N1CCN(c2cccc(C(F)(F)F)c2)CC1)C(C)C,x,x,x,x,x,4,31%,3.0,x
O=c1[nH][nH]c(C(F)(F)F)c1C=Nc1ccccc1,0.69,x,x,x,x,3,u,-0.8,x
O=C(COc1ccc2ccccc2c1)NNC(=O)c1ccccc1,0.72,i,-1,10,0.2,x,-33%,1.5,-0.3
C[C@H]1CN([C@@H](C)CO)C(=O)c2cc(Br)cnc2O[C@@H]1CN(C)Cc1cccc(F)c1,x,i,0,13,-2.3,x,x,x,2.0
CC1=C(C(=O)OC(C)C)C(c2c[nH]c3ccccc23)n2ncnc2N1 (centres undefined),0.77,i,-37,-72,-24,3,0%,1.5,1.9
c1ccc(-c2nc3ccccn3c2NC2CCCC2)nc1,0.67,i,-62,-82,-21,u,-3%,3.4,21
O=C(NC1CC1)c1ccc(N2CCCCC2)c([N+](=O)[O-])c1,0.67,i,-10,-13,0.0,13,x,0.9,-11
Cc1ccc(S(=O)(=O)N/N=C/c2ccccc2O)cc1,x,i,6,7,1.9,25,-11%,0.5,-2.1
Cc1ccc(NC(=S)NN2CCOCC2)c(C)c1,0.75,x,x,x,x,6,-5%,0.8,x
CSc1ccc(CNC2CC2)cc1,0.69,x,x,x,x,-7,-3%,-1.8,x

# High-throughput results: PubChem BioAssay, several laboratories

# This is a subset; rates above refer to the full screens.
